12-LOX inh: Primary qHTS assay for inhibitors of human arachidonate 12S-lipoxygenase (ALOX12): Round 2; Polyunsaturated fatty acid lipoxygenase ALOX12 (Homo sapiens), P18054; purified 12hLO, xylenol orange hydroperoxide absorbance; Potency, µM (titrated, usually from 108 µM), without a hit: top-dose activity change, negative = inhibition, usual class: inhibitors; hit rate 1.1% among 580,000; AID 1671190, 2021; note: potency is the fitted concentration of half-maximal effect; % is set by controls: 0 for no effect and ±100 for the full control effect
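Purified human 12hLO (150 nM final) in 25 mM Hepes, 0.01% Triton X-100, pH 7.0 was preincubated 15 min at room temperature with compound. Then 40 uM arachidonic acid was added, 30 min. Hydroperoxide was read by Fe-XO absorbance ratio 573/405 nm.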
RGS4 inhibitor: Inhibitors of Regulator of G Protein Signaling (RGS) 4: qHTS. hit rate 0.039% among 390,000. Regulator of G-protein signaling 4 (Homo sapiens), P49798. Transcreener GDP fluorescence polarization, RGS4-accelerated GTP hydrolysis. Potency, µM (series often up to 114 µM), for inactives: at the top dose activity change, negative = inhibition, hits mostly inhibitors; note: potency is the fitted concentration of half-maximal effect; % is set by controls: 0 for no effect and ±100 for the full control effect; nearly all actives have a fitted effect of over 75% in size; some results filed as inactive show a strong effect at the top dose
Target sequence (P49798 whole entry, looked up): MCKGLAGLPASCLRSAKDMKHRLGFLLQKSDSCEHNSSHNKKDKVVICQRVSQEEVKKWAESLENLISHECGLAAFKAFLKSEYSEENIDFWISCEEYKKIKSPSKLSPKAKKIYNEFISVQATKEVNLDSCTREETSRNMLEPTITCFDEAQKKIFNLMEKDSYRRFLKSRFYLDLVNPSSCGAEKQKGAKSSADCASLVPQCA
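MLSMR compounds (23 nl, pin-transferred) preincubated 10 min at room temperature with a 500nM (2x) first reagent, then RGS4 at 900nM (2x) plus Transcreener GDP mix added; fluorescence polarization (620/688 nm) read before and after 90 min at 30 °C.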
ERG-DNA inh: qHTS for Small Molecule Inhibitors of the ERG Ets/DNA interaction | Transcriptional regulator ERG (Homo sapiens), P11308 | fluorescence polarization, His-ERG Ets domain / labelled DNA | Potency, µM (top dose mostly 76.9 µM), for inactives: top-dose FP activity, negative = inhibition, most hits filed as inhibitors | hit rate 0.028% among 370,000 | AID 624246, 2012; active = well fitted inhibition curve with a large enough effect in the polarisation, with a control signal flat; inconclusive = small, poorly fitted or top-dose-only effect, or effect the other way, or a change in a side signal; inactive = no such curve, though single readings can be large or run the other way; the % refers to the polarisation;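 note: polarization taken with two DNA probes labelled with fluorescein and Texas red; potency is the fitted concentration of half-maximal effect; % of control where 0% means no effect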
Target sequence (P11308 whole entry, looked up, the tested form may be a part): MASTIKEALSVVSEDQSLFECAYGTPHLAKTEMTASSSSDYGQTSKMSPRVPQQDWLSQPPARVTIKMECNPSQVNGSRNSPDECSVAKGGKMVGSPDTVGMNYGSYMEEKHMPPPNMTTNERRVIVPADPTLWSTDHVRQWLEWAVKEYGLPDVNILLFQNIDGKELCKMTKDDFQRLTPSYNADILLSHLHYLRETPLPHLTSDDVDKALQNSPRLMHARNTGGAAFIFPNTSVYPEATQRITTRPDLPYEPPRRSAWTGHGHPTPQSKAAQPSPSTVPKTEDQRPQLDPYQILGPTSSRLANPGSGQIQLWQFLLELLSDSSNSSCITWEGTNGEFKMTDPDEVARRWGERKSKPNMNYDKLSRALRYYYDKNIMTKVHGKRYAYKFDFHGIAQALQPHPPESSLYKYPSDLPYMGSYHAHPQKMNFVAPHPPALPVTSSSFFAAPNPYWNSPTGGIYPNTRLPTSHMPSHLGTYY
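His-tagged ERG Ets domain (1 uM in the protein solution; 300mM KCl, 50mM Tris-HCl, 1mM EDTA, 1mM DTT, pH 7.5) received compound, then a probe mix of 5 nM fluorescein-DNA and 100nM Texas-615-DNA. Fluorescence polarization was read for both dyes.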
PI4K2A block: qHTS for small molecular inhibitors of PI4K2A; purified PI4K2A, ADP-Glo luminescence, 1 h; stronger effect = lower value; activity change, negative = inhibition, % at 76.9 µM; Phosphatidylinositol 4-kinase type 2-alpha (Homo sapiens), Q9BTU6; hit rate 0.13% among 420,000; AID 1346378, 2018; in the data active = activity change below about -50%; inconclusive = mostly about -30% to -49%;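 note: -100% = wells without enzyme as full effect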
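PI4K2A activity was measured by ADP-Glo luminescence: enzyme (4 ug/mL stock) and phosphatidylinositol (1.2 mM stock) in Tris pH 7.5/MgCl2/EGTA/Triton X-100 buffer were reacted with ATP (300 microM stock) for one hour at ambient temperature.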
GLS inhibitor: qHTS for Inhibitors of Glutaminase (GLS); Glutaminase kidney isoform, mitochondrial (Homo sapiens), O94925; hit rate 0.21% among 410,000; Potency, µM (highest dose often 45.5 µM), for inactives: at the top dose activity change, negative = inhibition, actives largely listed as inhibitors; AID 624170, 2012; GLS enzymatic activity, qHTS titration; note: potency is the fitted concentration of half-maximal effect; % is set by controls: 0 for no effect and ±100 for the full control effect
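Human kidney-isoform GLS in 45 mM KH2PO4 pH 8.2, 0.02% Tween-20, with compound, started with 1mM L-Glutamine (added stock). Glutamate oxidase/HRP/Amplex red coupled fluorescence read at start and after 30 min at RT.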
G9a block: qHTS Assay for Inhibitors of Histone Lysine Methyltransferase G9a | Histone-lysine N-methyltransferase EHMT2 (Homo sapiens), Q96KQ7 | G9a H3K9 monomethylation, AlphaScreen, 2 h | Potency, µM (series often up to 102 µM), inactives show top-dose activity, negative = inhibition, usual class: inhibitors | hit rate 8.8% among 350,000 | AID 504332, 2011; note: potency is the fitted concentration of half-maximal effect; % is set by controls: 0 for no effect and ±100 for the full control effect; nearly all actives have a fitted effect of over 75% in size
Target sequence (Q96KQ7 913-1193 limits assumed): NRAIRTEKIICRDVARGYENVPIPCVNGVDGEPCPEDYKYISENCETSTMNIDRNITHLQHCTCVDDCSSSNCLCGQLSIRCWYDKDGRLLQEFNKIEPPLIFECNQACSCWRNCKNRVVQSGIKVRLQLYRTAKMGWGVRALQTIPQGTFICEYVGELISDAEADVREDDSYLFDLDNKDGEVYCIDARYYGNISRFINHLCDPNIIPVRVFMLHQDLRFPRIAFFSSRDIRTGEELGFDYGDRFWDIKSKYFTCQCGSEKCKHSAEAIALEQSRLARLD
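Methyltransferase reactions run at room temperature for 2 h (20 nM enzyme, 500 nM biotin-H3K9 peptide, 20 uM SAM) after a 15 min compound preincubation; product detected by AlphaScreen beads and anti-H3K9me1 antibody.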
The depositor's hits bear a star; ? = inconclusive; nt = no result given; & = joins results of further samples; [ ] = another dose, or the depositor's remark. Unless noted, calls come from the whole dose curve; as a rule, active = well fitted curve in the direction sought with a large enough effect; inconclusive = small, poorly fitted or top-dose-only effect, or another doubt; inactive = no such curve, though single readings can be large; an effect the other way counts as inactive or inconclusive. These rows are one share of the data; rates above refer to the full screens.

| GLS inhibitor | RGS4 inhibitor | G9a block | PI4K2A block | ERG-DNA inh | 12-LOX inh | mol |
| --- | --- | --- | --- | --- | --- | --- |
| -10% | -6% | -41% | 1 | -2% | -12% | O=C(COc1ccc(Cl)cc1Cl)Nc1nnc(C2=COCCO2)o1 |
| -8% | 29% | ? | -2 | 0% | -52% | CCc1ccccc1N1CC(c2nc3ccccc3n2CCCCOc2ccccc2OC)CC1=O (stereo not drawn) |
| 10% | -4% | ? | -2 | -1% | ? | CCOc1ccc(CN2CCc3nc(N4CCN(c5ccccc5OC)CC4)ncc3C2)cc1OC |
| -8% | -3% | nt | -1 | 0% | ? | CCC(C)N1CCN(C(=O)c2cccs2)CC1 (stereo not drawn) |
| 0% | 18% | 2.2µM* | -1 | 10% | ? | COc1ccc(CN2CCN(Cc3ccc(Br)cc3)CC2)c(OC)c1OC |
| 6% | 0% | ? | 4 | -6% | 3% | COC(=O)C1=C(NC(=O)c2ccccc2[N+](=O)[O-])CCS1 |
| -18% | 6% | 20µM* | 13 | -8% | ? | CCOC(=O)N1CCN(C/C(C)=C/c2ccccc2)CC1 |
| -9% | -7% | 7.9µM* | -3 | -10% | ? | CCC(C)(C)C1CCC(=NNC(=S)Nc2ccccc2)CC1 (stereo not drawn) |
| 0% | -13% | nt | -2 | 3% | nt | COc1ccc(C2/C(=C(/O)c3ccc(F)cc3)C(=O)C(=O)N2CCCN2CCOCC2)cc1OC (stereo not drawn) |
| 1% | 10% | nt | -1 | 8% | -24% | O=C(c1ccc([N+](=O)[O-])cc1)N1CCN(Cc2ccccc2[N+](=O)[O-])CC1 |
| 0% | 1% | 1.8µM* | 1 | 11% | -18% | O=C(CNCCN1CCOCC1)Nc1ccccc1Sc1ccccc1 |
| 3% | 1% | 14µM* | -1 | -1% | ? | COc1ccc(-c2cc3ccccc3n2CC(O)CN2CCCCC2)cc1 (stereo not drawn) |
| -7% | -20% | -9% | -13 | -11% | ? | CSc1ccccc1NC(=O)CN(C)Cc1cccc(Cl)c1 |
| 32%[activator] | 0% | 13%[12.7 µM] | 0 | 5% | 4% | C=CCn1c(Cc2csc(N)n2)nnc1SCc1ccc(C(=O)OC)cc1 |
| ? | 9% | ? | -3 | -3% | ? | NC(=O)[C@H]1CC2(CC(c3cccc(NC(=O)[C@H]4CCC(=O)N4)c3)=NO2)CN1C(=O)c1ccccc1 (stereo partly drawn) |
| -5% | -20% | -50%[59 µM] | 1 | -3% | -27% | COc1ccc(NC(=O)CSc2nnc(-c3ccccn3)n2-c2ccccc2)cc1OC |
| -12% | -15% | 35µM* | -3 | -7% | ? | CN1CCOC(=O)/C1=N/Nc1cc(Cl)ccc1Cl |
| 18% | -24% | nt | 1 | nt | 3% | Fc1ccc(N2C(=S)SC(=Nc3ccccc3)C2=Nc2ccccc2)cc1 |
| -6% | -27% | 28µM* | 9 | nt | ? | CCOc1ccccc1N/C(=C(/C(Cl)=C(Cl)Cl)[N+](=O)[O-])n1cncn1 |
| 11% | 32% | 2µM* | 7 | 1% | ? | O=C(Nc1ccccc1)N1CCN(Cc2ccccc2)CC1 |
| 1% | 12% | ? | 0 | -3% | ? | COc1ccc(CNCc2ccc3c(c2)OCO3)cc1Br |
| 11% | 10% | nt | 0 | -3% | 0% | Cn1c(SCC(=O)Nc2nnc(-c3ccccc3)o2)nnc1C1CC1 |
| -20% | 8% | 0.79µM* | -12 | 2% | 3% | O=C(Nc1ccccc1)c1nc[nH]c1C(=O)O |
| 1% | -1% | 11µM* | 2 | 4% | ? | CCOC(=O)N1CCN(Cc2ccc(F)cc2F)CC1 |
| 25% | ? | 2.5µM* | -6 | 1% | -6% | Cc1ccc(-n2nc(-c3ccco3)cc2C(=O)NCc2cccnc2)cc1 |
| 3% | 33% | nt | -1 | -11% | nt | CC1CCN(S(=O)(=O)c2cn(CC(=O)N3CCN(c4cccc(C(F)(F)F)c4)CC3)cn2)CC1 |
| -1% | -32% | 2.2µM* | 10 | 13% | ? | O=C(c1ccccc1)N1CCN(CC2CC=CCC2)CC1 (stereo not drawn) |
| 2% | -35% | ? | 0 | nt | -13% | Clc1ccc(SCCOCCN2CCCCC2)cc1 |
| -1%&-10% | -4%&-15% | 3.2µM* | 9&4 | -2%&-2% | ? | COc1ccc(CN2CCN(S(=O)(=O)c3ccccc3)CC2)c(OC)c1 |
| 2% | -5% | nt | 7 | 6% | -47% | CS(=O)(=O)N(CC(=O)N1CCCC1)c1cc(Cl)ccc1Cl |

Four entries from above in another layout.
SMILES,GLS inhibitor,RGS4 inhibitor,G9a block,PI4K2A block,ERG-DNA inh,12-LOX inh
CCOC(=O)N1CCN(Cc2ccc(F)cc2F)CC1,1%,-1%,11µM*,2,4%,?
Cc1ccc(-n2nc(-c3ccco3)cc2C(=O)NCc2cccnc2)cc1,25%,?,2.5µM*,-6,1%,-6%
CC1CCN(S(=O)(=O)c2cn(CC(=O)N3CCN(c4cccc(C(F)(F)F)c4)CC3)cn2)CC1,3%,33%,nt,-1,-11%,nt
O=C(c1ccccc1)N1CCN(CC2CC=CCC2)CC1 (stereo not drawn),-1%,-32%,2.2µM*,10,13%,?

Given with values under each structure: part of the list above.
Every second line gives: GLS inhibitor	RGS4 inhibitor	G9a block	PI4K2A block	ERG-DNA inh	12-LOX inh
Cn1c(SCC(=O)Nc2nnc(-c3ccccc3)o2)nnc1C1CC1
→ 11%	10%	nt	0	-3%	0%
O=C(Nc1ccccc1)c1nc[nH]c1C(=O)O
→ -20%	8%	0.79µM*	-12	2%	3%
CCOC(=O)N1CCN(Cc2ccc(F)cc2F)CC1
→ 1%	-1%	11µM*	2	4%	?
Cc1ccc(-n2nc(-c3ccco3)cc2C(=O)NCc2cccnc2)cc1
→ 25%	?	2.5µM*	-6	1%	-6%

Following part:
| GLS inhibitor | RGS4 inhibitor | G9a block | PI4K2A block | ERG-DNA inh | 12-LOX inh | mol |
| --- | --- | --- | --- | --- | --- | --- |
| 15% | 27% | ? | 3 | 4% | -30% | COc1cccc(CN2CCc3nc(Nc4ccc5c(c4)OCCO5)ncc3C2)c1 |
| 5%&7% | -5%&10% | 11µM* | 3&0 | -4%&-2% | 5%&-10% | Cc1ccccc1NC(=O)CSc1ccc(-c2ccccn2)nn1 |
| -1% | 5% | -8%[0.501 µM] | 1 | -3% | ? | Cc1ccc(CN2CCN(C(=O)CC(C)C)CC2)cc1 |
| ? | -11% | 3.5µM* | -3 | -1% | ? | Cc1ccc(NC(=S)N/N=C2\CCCCC2C)cc1 (stereo not drawn) |
| -2% | 8% | ? | 3 | 1% | -7% | Cc1ccc(OCc2nnc(SCCN3CCOCC3)n2C)cc1 |
| -2% | -29% | ? | 5 | 0% | ? | CCCCNC(C(=O)Nc1ccc(Cl)c([N+](=O)[O-])c1)c1ccccc1 (stereo not drawn) |
| 0% | 8% | nt | 7 | -14% | -17% | COc1cccc(CC2(CO)CCCN(Cc3cn[nH]c3-c3ccccc3)C2)c1 (stereo not drawn) |
| ? | -31% | 10µM* | 3 | -2% | -17% | Cn1c(-c2ccccc2)cnc1NCc1cc2c(cc1[N+](=O)[O-])OCO2 |
| -16% | 4% | ? | -8 | -6% | ? | O=C(Nc1nnc(SCc2ccc(F)cc2)s1)c1ccc2ncsc2c1 |
| 10% | -3% | ? | 3 | 2% | 3% | CCN1CCN(c2cc(C)c3cc(NC(=O)c4cc(Br)ccc4Cl)ccc3n2)CC1 |
| 7% | -3% | ? | -5 | 0% | ? | O=C(CSC1CCCCC1)N1CCN(c2ccccc2)CC1 |
| 0% | -16% | ? | 1 | -5% | ? | CCOC(=O)N1CCN(CC(=O)Nc2ccc(C)c(Br)c2)CC1 |
| 3% | 7% | 8.9µM* | 2 | -1% | -53% | COc1cc(OC)cc(C(=O)N2CCN(Cc3cccc(F)c3)CC2)c1 |
| 1% | -18% | nt | 0 | -6% | 1% | COc1ccc(C2c3cc4c(cc3OC(N3CCOCC3)C2C)OCO4)c(OC)c1 (stereo not drawn) |
| -13% | -11% | 2.8µM* | 11 | 6% | ? | O=S(=O)(c1ccccc1)N1CCN(Cc2ccccc2C(F)(F)F)CC1 |
| -4% | -20% | ? | 2 | 3% | -6% | Cc1ccc(C(=O)c2ccc([N+](=O)[O-])cc2)c(C)c1 |
| 3% | -25% | nt | 4 | 9% | -26% | CCN(CC(=O)NCc1ccccc1Cl)CC(=O)Nc1c(F)cccc1F |
| -1% | 13% | 10µM* | 1 | -2% | 54% | Cn1c(-c2ccccc2)cnc1NCc1cccc([N+](=O)[O-])c1 |
| 0% | 12% | 45µM* | -1 | -9% | 1% | COc1ccc(NC(=O)COC(=O)C2CCCCC2)c([N+](=O)[O-])c1 |
| 20% | 3% | -46% | 1 | 6% | ? | Cc1cc(N/N=C2\CC(C)CC(C)(C)C2)nc2ccccc12 (stereo not drawn) |
| 2% | 0% | 23% | -3 | 2% | 9% | CC(=O)Nc1cccc(NC(=O)CSc2ccc(-c3ccccn3)nn2)c1 |
| 3% | -9% | nt | -2 | -19% | -3% | O=C(NCCc1ccc(Cl)cc1)c1ncn[nH]1 |
| 5% | 13% | -23% | 3 | -4% | 0% | COC(=O)CSc1nnc(-c2ccccn2)n1N |
| 1% | 19% | 3.2µM* | 0 | 10% | ? | CCN1CCN(CC(=O)Nc2cc(C)on2)CC1 |
| -1% | 15% | nt | -21 | -9% | 18% | Cc1ncccc1C(=O)N1CCCC(CNC(=O)C2(c3ccc(Cl)cc3)CC2)C1 (stereo not drawn) |
| 34%[activator] | 28% | -50%[59 µM] | -3 | nt | 23% | Nc1nc(COc2ccc3ccccc3c2)cs1 |
| 7% | -23% | 7%[59 µM] | -14 | -17% | 9% | CCOC(=O)N1CCN(S(=O)(=O)c2ccc(C(=O)Nc3nnc(CC)o3)cc2)CC1 |
| 6% | -34%[56.9 µM] | 7.9µM* | 0 | 2% | ? | CSc1ccc(CN2CCC(C(=O)NCc3ccc(C)cc3)CC2)cc1 |
| -8% | -31% | 2.8µM* | -3 | -3% | -22% | COCCNCCOCCOc1ccc(Cl)c(C)c1 |
| 3% | 17% | -42%[12.7 µM] | 7 | -16% | -30% | CC(=O)c1cc2c(cc1NC(=O)CN1CCCCCC1)OCO2 |
| -1% | -3% | 10µM* | 3 | -9% | ? | O=C(CNCc1cccs1)Nc1ccc(S(=O)(=O)N2CCCCC2)cc1 |

Screens: PubChem, National Center for Advancing Translational Sciences (NCATS)
